Bioassay records (PubChem BioAssay)
Anthrax LT inh: anthrax lethal toxin internalization inhibition | Cells, anthrax lethal toxin internalization, FRET ratio (460/530) | Potency, µM (top dose mostly 40 µM), for the others: at the highest dose activity change, negative = inhibition, actives largely listed as inhibitors | 0.67% of 70,000 active; active = well fitted falling ratio curve with the 530 nm signal flat; inconclusive = other ratio curves, or a change in one channel alone; inactive = flat curves in the ratio and both channels; the % refers to the ratio; also: % is scaled to controls: 0 for no effect and ±100 for the full control effect; nearly all actives have a fitted effect of over 50% in size; tested in ME-180 cells; beta-lactamase reporter
SmPrx2 inh: blocks S. mansoni peroxiredoxin 2 enzymatic activity. S. mansoni Prx2 activity coupled to TGR/GSH (TGR is thioredoxin glutathione reductase), NADPH fluorescence loss, qHTS; some inactives read as strong as hits. Potency, µM. 0.07% of 65,000 active. AID 448; active means full or partial inhibition curve with a strong effect at the top dose; inconclusive means weaker partial or single-point curve; inactive means no accepted curve; also: series up to 57 µM; many of its hits are not listed in these tables
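Prx2 activity was followed as the loss of NADPH fluorescence (ex 365/em 450 nm), read every 30 sec for 8 min after H2O2 start. The enzyme mix (50 nM Prx2, 25 nM TGR, GSH, NADPH; pH 7.4 phosphate buffer) was incubated with compound for 15 min at room temperature first.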
Starred values were filed as active, the others as inactive; ? = inconclusive; nt = no result given; & = joins results of further samples; [ ] = another dose, or the depositor's remark. Potency is read from the fitted curve at half-maximal effect. Not all compounds are listed (hit frequency here may not be typical).

| Compound | Anthrax LT inh | SmPrx2 inh |
| --- | --- | --- |
| CCn1c(SCC(=O)N2CCOCC2)nc2c(c1=O)SC(C)C2 (stereo not given) | 3.7% | >57 |
| O=C(c1cc2n(n1)C(C(F)(F)F)CC(c1ccc(F)cc1)N2)N1CCCC1 (stereo not given) | 11.1% | >57 |
| Fc1c(F)c(C(F)(F)F)c(F)c(F)c1N1CCN(c2ccc3nnc(C(F)(F)F)n3n2)CC1 | -3.6% | >57 |
| COC(=O)c1cc(OC)c(OC)c(OC)c1NC(=O)c1ccc(S(=O)(=O)N(C)C)cc1 | -9.6% | >57 |
| CCCN(CCC)CCCNC(=O)CC(C(=O)N1CCc2ccccc21)n1ccnc1 (stereo not given) | -7.8% | >57 |
| c1ccc2c(Nc3ccncc3)nc(-c3ccoc3)nc2c1 | 0.9% | >57 |
| Cc1cc(C)n2nc(C(=O)OCC(=O)c3cc(C)n(C)c3C)nc2n1 | 3.3% | >57 |
| COCCOC(=O)C1=C(C)N=C2SCCC(=O)N2C1c1ccc(OC(=O)c2ccco2)cc1 (stereo not given) | -4.1% | nt |
| CCCn1c(C)cc(C(=O)CSc2nnc3n(CCC)c(=O)c4ccccc4n23)c1C | -0.5% | >57 |
| COc1cc(NC(=O)Nc2cccc(Cl)c2)c(OC)cc1NC(=O)CN1CCCCC1 | -1.4% | >57 |
| CC(=O)N1CCC2(CC1)CCN(c1cccc(-c3ccccc3)c1)CC2 | -4.9% | >57 |
| O=C(c1cccc(F)c1)N1CCN(Cc2ccco2)CC1 | ? | nt |
| O=c1cc(CNC2CCCCC2)c2ccccc2[nH]1 | -3.7% | >57 |
| Cc1cnc(CNc2ncncc2-c2ccccc2C)cn1 | -4.7% | >57 |
| C[C@H]1CCC[C@@H](O)CCC/C=C/c2cc(O)cc(O)c2C(=O)O1 | 3.4% | >57 |
| Cc1cc(NC(=O)CSCCc2ccncc2)no1 | 0.1% | >57 |
| CC1CCc2c(sc(NC(=O)c3ccc(Cn4cc(Br)cn4)o3)c2C(N)=O)C1 (stereo not given) | -3.2% | >57 |
| COc1ccccc1CNC(=O)Cn1cc2c(n1)CCCC2 | 10.4% | >57 |
| Cn1c(C(=O)NCCCN2CCCCCC2)cc2c(=O)n(C)c3ccccc3c21 | 3.98µM* | nt |
| CCOc1cc(C2c3c(n[nH]c3C)C(=O)N2c2ccc(Br)cc2)ccc1O (stereo not given) | ? | >57 |
| C1CCc2nnnn2CC1 | -15.0%[3.58 µM] | >57&>57 |
| CN1CCc2c(sc3c2C(=O)NC(c2cccs2)N3)C1 (stereo not given) | ? | nt |
| Cn1ncc(C#N)c1/N=C/N1CCCCC1 | -0.1% | >57 |
| Cc1ccc2c(c1)nnn2C1CCN(S(=O)(=O)c2ccc(C(=O)N3C(C)CCCC3C)cc2)CC1 (stereo not given) | -4.5% | >57 |
| Cc1nc2sccn2c1P(c1c(C)nc2sccn12)c1c(C)nc2sccn12 | 13.6% | >57 |

Another view of 6 compounds above.
Every second line gives: Anthrax LT inh | SmPrx2 inh
COc1ccccc1CNC(=O)Cn1cc2c(n1)CCCC2
    10.4% | >57
COC(=O)c1cc(OC)c(OC)c(OC)c1NC(=O)c1ccc(S(=O)(=O)N(C)C)cc1
    -9.6% | >57
CCOc1cc(C2c3c(n[nH]c3C)C(=O)N2c2ccc(Br)cc2)ccc1O (stereo not given)
    ? | >57
O=C(c1cccc(F)c1)N1CCN(Cc2ccco2)CC1
    ? | nt
Cn1c(C(=O)NCCCN2CCCCCC2)cc2c(=O)n(C)c3ccccc3c21
    3.98µM* | nt
COCCOC(=O)C1=C(C)N=C2SCCC(=O)N2C1c1ccc(OC(=O)c2ccco2)cc1 (stereo not given)
    -4.1% | nt

Looked up by structure from above (2):
| Compound | Anthrax LT inh | SmPrx2 inh |
| --- | --- | --- |
| CCCN(CCC)CCCNC(=O)CC(C(=O)N1CCc2ccccc21)n1ccnc1 (stereo not given) | -7.8% | >57 |
| C1CCc2nnnn2CC1 | -15.0%[3.58 µM] | >57&>57 |

The results go on.
| Compound | Anthrax LT inh | SmPrx2 inh |
| --- | --- | --- |
| COc1ccc(S(=O)(=O)N2CCN(CC(=O)Nc3ccc(C)c(F)c3)CC2)cc1 | -1.5% | >57 |
| O=C(NCc1ccccc1)c1noc2c1CCCC2 | 2.4% | >57 |
| O=C(CCNS(=O)(=O)c1ccc(Cl)cc1)N1CCC2(O)CCCCC2C1 (stereo not given) | ? | >57 |
| COC(=O)[C@@]1(Cc2ccccc2)[C@H]2c3cc(C(=O)N4CCCC4)n(CCc4ccccn4)c3C[C@H]2CN1C(=O)c1ccccc1 | ? | >57 |
| O=C(CCCn1c(=S)[nH]c2ccccc2c1=O)NCc1ccco1 | 12.9% | >57 |
| CC(C)(C)[C@@]1(O)CCN2C[C@@H]3c4ccccc4CCc4cccc(c43)[C@@H]2C1 | -10.3%&7.1% | >57&>57 |
| CCn1c(Cc2cccn2C)nnc1SCC(=O)c1ccc(C)cc1 | -10.7% | >57 |
| COCCCN(C)C1CCN(C(=O)Nc2ccc(F)cc2)CC1 | -2.7% | >57 |
| CC(NC(=O)c1ccnc(C(C)(C)C)c1)c1ccccc1 (stereo not given) | -2.8% | >57 |
| COc1cccc(C(c2nnnn2Cc2ccco2)N2CCN(c3cccc(C)c3C)CC2)c1OC (stereo not given) | ? | >57 |
| CN1Cc2c(ccc3c2OCO3)[C@@H]2[C@@H](O)Cc3cc4c(cc3[C@@H]21)OCO4 | ? | >57&>57 |
| CN(C(=O)c1ccccc1Cl)c1ccccc1 | -2.9% | >57 |
| COc1ccc(S(=O)(=O)c2ccc(OC)c(OC)c2)cc1OC | ? | >57 |
| CCOC(=O)CCn1c(=O)c2c(nc(Br)n2Cc2ccccc2)n(C)c1=O | -3.2% | >57 |
| O=C(Nc1ccc(CN2CCOCC2)cc1)c1cc2ccccc2o1 | 2.9% | >57 |
| COc1ccc(Nc2oc(COc3ccc(Cl)cc3)nc2C#N)cc1 | -8.5% | >57 |
| CSC(=NCc1cccnc1)NS(=O)(=O)c1cccs1 | 12.0% | >57 |
| CN(CCNC(=O)c1ccc(N2CCCC2=O)cc1)CCc1ccccc1 | -9.3% | >57 |
| COc1ccc(C)cc1NC(=O)CSc1nnc(-c2cc3cccc(OC)c3o2)n1N | nt | >57 |
| COCCn1c(=O)[nH]c2cc(C(=O)N3CCN(Cc4ccc5c(c4)OCO5)CC3)ccc2c1=O | 4.2% | >57 |
| CN(C)S(=O)(=O)N1CCc2ccccc21 | ? | >57 |
| CC(C)(C)OC(=O)N1CCC(c2c(C(=O)O)cnn2-c2ccccc2)CC1 | -12.3% | >57 |
| CN1CCN([C@@H]2Cc3ccccc3Sc3ccc(Cl)cc32)CC1 | ? | >57 |
| O=C(NCCCN1CCOCC1)c1ccc(CNS(=O)(=O)c2ccc(F)cc2)cc1 | ? | >57 |
| COc1ccccc1CNC(=O)C1CC(=O)N(c2ccc(C)c(C)c2)C1 (stereo not given) | -17.7% | >57 |
| O=C(c1ccco1)N1CCCC(c2ccccc2)C1 (stereo not given) | -13.7% | >57 |
| Cc1cc(C)nc(Sc2c(C)nn(-c3ccccc3)c2C)n1 | -6.4% | >57 |
| Cc1ccc(CNC(=O)c2ccc(NS(=O)(=O)c3c(C)noc3C)cc2)cc1 | 0.1% | >57 |
| O=C1C2CCCN2C(c2cccnc2)N1c1nccs1 (stereo not given) | 0.4% | >57 |
| CCN1CCN(CCNC(=O)c2cn(C(C)c3ccccc3F)nn2)CC1 (stereo not given) | -7.1% | >57 |
| COc1ccc(OC)c(C2OCCC=CC2C)c1 (stereo not given) | 1.8%[8 µM] | nt |
| Cc1cc2ncn(-c3ncnc4sc(C)c(C)c34)c2cc1C | ? | >57 |
| O=C(C1CC1)N1CCc2cc(S(=O)(=O)N3CCOCC3)ccc21 | -6.7% | >57 |
| CCOC(=O)c1ccc2c(c1)nc(COc1ccccc1C#N)n2CC | -13.8% | >57 |
| Cc1ccc(O)cc1 | 1.9% | nt |
| Cc1ccc(CSc2nnc(-c3ccco3)n2N)cc1 | ? | >57 |
| CC1=C(C(=O)OC(C)C)C(c2ccc(Br)s2)NC(=O)N1C (stereo not given) | -15.3% | nt |
| C=C(C)COc1ccc(-c2[nH]ncc2Oc2cccc(OC)c2)c(O)c1 | ? | ? |
| CC1(COc2ccc(C[C@H]3SC(=O)NC3=O)cc2)CCCCC1 | ? | >57 |
| O=C(NCc1ccccc1F)C1CCCN1C(=O)NCc1ccccc1 (stereo not given) | -13.2% | >57 |
| O=C1NC(=S)SC1=C1CCCCCC1 | -20.2% | nt |
| Cn1c2c(c(=O)n(C)c1=O)CN(Cc1ccco1)CN2 | -3.6% | >57 |
| O=C(Nc1nc2ccccc2[nH]1)C1CCCO1 (stereo not given) | -9.1% | >57 |
| Cc1cc(C(=O)Cn2nnc(-c3ccc(Cl)cc3)n2)c(C)n1CC1CCCO1 (stereo not given) | ? | >57 |
| CCOC(=O)C1C(=O)NC2(C)CC1c1cc(OC)ccc1O2 (stereo not given) | -10.8% | >57 |
| Clc1ccccc1-c1nc(-c2cccnc2)no1 | -9.3% | >57 |
| CCn1c(SCC(=O)Nc2cc(C)c(Cl)cc2OC)nnc1-c1ccco1 | -1.6% | >57 |
| N#Cc1ccc(CN2CCC3(CCNCC3)CC2)cc1 | -3.0% | >57 |
| COc1ccc(CNC(=O)CCc2nc(-c3ccccc3F)no2)c(OC)c1 | 5.7% | >57 |
| O=C1c2ccccc2C(=O)N1CCCOc1ccccc1 | -2.4% | >57 |

Further records
| Compound | Anthrax LT inh | SmPrx2 inh |
| --- | --- | --- |
| COc1ccc(C2CC(C(F)(F)F)n3nc(C(=O)O)cc3N2)cc1OC (stereo not given) | 1.8% | >57 |
| COc1ccc(OC)c2c(C)cc(N3CCN(C(=O)c4ccc(F)cc4)CC3)nc12 | -8.6% | >57 |
| O=S(=O)(c1ccc2c(c1)OCCO2)N1CCC(n2nnc3cc(C(F)(F)F)ccc32)CC1 | ? | >57 |
| Cc1cccc(-n2c(=O)[nH]c3c(C(N)=O)nc(CC(C)C)nc32)c1 | -2.9% | >57 |
| CC(Oc1ccccc1)C(=O)OCC(=O)NC(=O)NCc1ccco1 (stereo not given) | 2.2% | >57 |
| Cc1cc(C)c2nc(N3CCCC(C(=O)N4CCC(C(N)=O)CC4)C3)sc2c1 (stereo not given) | 23.4% | >57 |
| CCCCCC/C(=N/O)c1ccccn1 | -6.5% | >57 |
| CCCCC(CC)CNC(=O)CCS(=O)(=O)c1cccc2nsnc12 (stereo not given) | -19.4% | >57 |
| CC1CCN(Cc2ccc(NC(=O)CC3Oc4ccccc4NC3=O)cc2)CC1 (stereo not given) | -5.5% | >57 |
| COc1ccc(C(=O)C2CCN(S(=O)(=O)c3ccc4c(c3)OCCO4)CC2)cc1 | ? | >57 |
| Nc1ccn(-c2ccccc2)c(=O)c1 | -10.0% | >57 |
| Cc1ccc(NC(=O)c2cnc3scc(C)n3c2=O)c(C)c1 | 2.0% | >57 |
| Cc1ccc(C(C)n2cc(C(=O)NCc3ccncc3)nn2)cc1 (stereo not given) | -19.9% | >57 |
| CCOCC(=O)Nc1c(C(=O)OCC)oc2ccccc12 | -4.6% | >57 |
| COc1cccc(-c2cc(C(=O)N3CCN(Cc4ccccc4)CC3)no2)c1 | -25.3% | >57 |
| CC1(C(=O)NCc2cccnc2)CCC(=O)N1CCc1ccccc1 (stereo not given) | -8.1% | >57 |
| Cc1ccc(OCc2ccc(C(=O)N3CCOCC3)cc2)cc1C | 5.2% | >57 |
| COc1ccc(OC)c(N2C(=O)CC(Cc3ccc(C)cc3)C2=O)c1 (stereo not given) | 0.0% | >57 |
| CS(=O)(=O)N1CCC2(CCN(Cc3ccncc3)CC2)CC1 | 12.9% | >57 |
| C=CCOC(=O)Nc1c(C(=O)OC)[nH]c2ccc(Cl)cc12 | 11.8% | >57 |
| Cc1cc(OCCSc2nnc(-c3cccs3)n2C)ccc1Cl | -3.9% | >57 |
| CC1(C)CC(=O)c2cc(OCC(=O)NCCCN3CCN(c4ccccc4F)CC3)ccc2O1 | 0.4% | >57 |
| CN(Cc1ccccc1)c1nc2c(c(=O)[nH]c(=O)n2C)n1Cc1ccccc1 | 0.4% | >57 |
| COC(=O)CNC(=O)CCCCC(=O)NCC(=O)OC | 4.3% | >57 |
| Cc1cc2c(cc1C)-c1nnnn1C(C)(C)C2 | nt | >57 |
| CCOc1ccc2c(O)csc2c1 | ? | >57 |
| Cc1ccccc1-c1cncnc1Nc1ccccc1 | 9.9% | >57 |
| Cc1ccc(SCC(=O)NCCN2C(=O)CSC2=O)c(C)c1 | -3.0% | >57 |
| Cc1ccc(Nc2nc(N)nc(CN3CCN(Cc4ccc5c(c4)OCO5)CC3)n2)cc1Cl | -27.4% | >57 |
| COc1ccc(C2C/C(=N\O)C(C)(C)O2)cc1 (stereo not given) | -3.0% | nt |
| Cc1ccc(-n2c(N)c(-c3nc4ccccc4n3C)sc2=S)cc1 | -1.6% | >57 |
| CC(C)(C)n1nc2c(c1NC(=O)c1ccc(Br)o1)CS(=O)C2 (stereo not given) | -2.8% | >57 |
| CC(C)NC(=O)c1ccccc1NC(=O)CCS(=O)(=O)Cc1ccccc1 | -20.5% | >57 |
| Nc1nc(NC(=O)c2cccnc2)nn1-c1ccccc1 | 8.0% | >57 |
| CN(C)CCC(C#N)(c1ccccc1)c1ccccc1 | 20.6%[8 µM] | >57 |
